# Compound activity: PubChem BioAssay, several laboratories
# Beta apoptosis = blocks beta cell apoptosis; protection from apoptosis, % (no concentration beside the values); 0.8% of 300,000 active; INS-1E cytokine-induced death, ATP luminescence, 48 h; percent of positive-control rescue, neutral wells zero;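 active = all replicates at 75% or more, or half of them and the mean; inconclusive = half reach 75% but not the mean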;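 note: 0% = cytokine-treated negative control wells and 100% = positive control rescue; higher means more ATP so stronger rescue from cytokine killing; wells of about 40 µL received 100 nL stock; the first replicate is given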
# RanGTP-Impb inh = inhibitors of RanGTP-importin-beta interaction, primary screen, biochemical, FRET, CFP-Ran, YFP-importin-beta, homogeneous; cell-free CFP-Ran/YFP-importin-beta FRET ratio; inhibition, % (concentration not given with the values); 1.1% of 300,000 active; AID 2216;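 active = most replicates above 15%; inconclusive = exactly half above 15%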;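 note: 0% = DMSO wells and 100% = Ran loaded with GDP instead of GTP; wells of about 40 µL received 100 nL stock; the first replicate is given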
# AF4-AF9 inh = blocks AF4 peptide binding to human AF9; inhibition, % at 10 µM; AID 651704; 0.47% of 350,000 active; AlphaScreen, biotin-AF4 peptide binding to FLAG-AF9;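 active = every replicate reaching a set inhibition limit, whatever the replicate mean, cut at about 25% in these data; inconclusive = mean inhibition reaches that limit but some replicates miss it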;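 note: 0% = plate neutral control median and 100% = total signal loss; the record names both 10 and 1 µM as test concentration; the first replicate is given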
# Target sequence (P42568 whole entry, looked up): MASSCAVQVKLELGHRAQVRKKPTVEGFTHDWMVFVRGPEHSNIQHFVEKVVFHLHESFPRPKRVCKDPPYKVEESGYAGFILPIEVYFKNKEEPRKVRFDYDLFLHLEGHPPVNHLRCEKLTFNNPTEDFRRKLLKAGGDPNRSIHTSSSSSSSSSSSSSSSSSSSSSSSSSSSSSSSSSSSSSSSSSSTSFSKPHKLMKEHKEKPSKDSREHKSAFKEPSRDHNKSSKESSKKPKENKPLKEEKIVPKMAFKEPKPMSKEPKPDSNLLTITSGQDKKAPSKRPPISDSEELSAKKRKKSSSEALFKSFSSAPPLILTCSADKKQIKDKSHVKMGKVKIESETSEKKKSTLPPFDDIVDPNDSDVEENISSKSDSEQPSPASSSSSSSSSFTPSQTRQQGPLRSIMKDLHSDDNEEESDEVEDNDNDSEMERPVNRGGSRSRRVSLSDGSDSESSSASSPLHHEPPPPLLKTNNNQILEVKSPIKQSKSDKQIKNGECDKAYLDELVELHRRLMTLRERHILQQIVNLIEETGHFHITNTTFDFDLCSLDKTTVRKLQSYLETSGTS
# Calb FLC = affects C. albicans growth with fluconazole. C. albicans CaCi-2 (fluconazole-resistant clinical isolate) + fluconazole, Alamar Blue growth, 48 h. growth inhibition, % (no concentration beside the values). 0.57% of 300,000 active. AID 1979;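 active = most replicates above 75%; inconclusive = exactly half above 75%; inactive = most below 75%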;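 note: all wells also contain fluconazole at 8 µg/ml as a sub-toxic cotreatment; 0% = median of DMSO wells and 100% = median of geldanamycin control wells; wells of about 8 µL received 7.5 nL stock; the first replicate is given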
# Ecoli rRNA inh = selective bacterial rRNA inhibition in E. coli; AID 720706; 1.6% of 350,000 active; E. coli WT GFP vs humanized-ribosome RFP mutants, fluorescence, 24 h; hits give low values; DMSO median 0, no signal -100; GFP signal change (wild-type ribosome), % (no concentration beside the values);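 active = significant combined selectivity score with lowered wild-type GFP, culture density cut under 30%, mutant RFP and density less affected; inactive = any of these conditions unmet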; note: one replicate is shown; some compounds called inactive have numbers as strong as hits
# Vif TR-FRET = inhibitors of Vif binding to APOBEC3G peptide, primary screen, biochemical, TR-FRET, GST-Vif 1-94, biotin-A3G peptide, dose response retest (AID 1117319) | TR-FRET GST-Vif / biotin-A3G peptide binding; higher % means a stronger effect; test concentration not given here; strong numbers were not always called active | inhibition, %; hits with a dose series show IC50 in µM | 0.57% of 260,000 active;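 active = above the screen mean plus three standard deviations and confirmed in dose response; inconclusive = results disagree or hit not tested in dose response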;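 note: Vif residues 1-94 fused to GST binding biotinylated APOBEC3G peptide 110-148; 0% = full assay without inhibitor and 100% = GST in place of GST-Vif; retest series ran down from 100 µM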
# A1 inh = inhibitors of the anti-apoptotic protein A1, read as caspase activation. MEF A1-2A-BIM cells, Caspase-Glo 3/7 luminescence, 3 h; percent of clofoctol response, vehicle zero. caspase activation, % (test concentration not listed). 0.066% of 330,000 active. AID 2462;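 active = over half of replicate activation scores above 10%, or exactly half above 10 with the replicate mean above 10; inconclusive = replicate mean below 10 yet half the replicates above 10; inactive = over half of replicates below 10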;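 note: wells of about 30 µL received 50 nL stock; many hits fall short of the cut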
# T cruzi inh = blocks replication of Trypanosoma cruzi; T. cruzi beta-gal in NIH3T3, luminescence, 90 h; inhibition, % (no concentration beside the values); 1.4% of 300,000 active; AID 1885;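 active = mean inhibition across valid replicates above about 55%, limit read from the data; inconclusive = mean below that limit but half or more replicates reach it; inactive = mean below it, under half of replicates reach it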;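 note: signal also drops with host cell toxicity which is not excluded here; 0% = plate median of DMSO wells and 100% = zero luminescence signal; higher percent means less beta-gal luminescence so fewer parasites; stock transfer was 50 nL into about 50 µL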
# Ecoli rRNA inh OD600 = further read-out of Ecoli rRNA inh, marked with its call; OD600 change, %; measured here: OD600 growth;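 optical density of the mix in the first replicate; 0 = DMSO median and -100 = no signal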
# Ecoli rRNA inh RFP = further read-out of Ecoli rRNA inh, marked with its call; RFP signal change, %; measured here: RFP humanized mutant strains;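 first replicate; 0 = DMSO median and -100 = no signal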
# Active calls of the source: *; ? = inconclusive; / = not tested or not shown.
SMILES,Beta apoptosis,RanGTP-Impb inh,AF4-AF9 inh,Calb FLC,Ecoli rRNA inh,Ecoli rRNA inh OD600,Ecoli rRNA inh RFP,Vif TR-FRET,A1 inh,T cruzi inh
CCc1ccc(-c2cc(C)no2)cc1S(=O)(=O)N1CCOc2ccccc21,11,0.6,0.2,-3,-19,-15,-4.9,/,-0.2,18
O=C(NN1C(=O)/C(=C\c2cccnc2)SC1=S)c1ccco1,-2,-2.3,-3.1,2,19,14,2.9,10%,0.4,14
Cc1ccc(-c2csc(NC(=O)c3c(C)noc3C)n2)cc1,20,/,1.4,/,-6,-5,-0.7,/,-0.2,/
COc1ccc(NC(=O)CSc2nnc(-c3cccnc3)o2)c(OC)c1,-5,0.1,-2.6,2,-1,8,-3.1,-1%,0.6,8
COc1cc(C(=O)NC2CC(C)(C)NC(C)(C)C2)cc(OC)c1OC,-3,2.1,-1.0,-5,11,7,1.5,-11%,0.1,0
O=C(Nc1ccc2ccccc2c1)c1ccc(Br)o1,5,-0.5,-1.1,-42,-34,-30,-11,/,-6.6,9
Cc1nnc(-c2cnn(C)c2N)n1CCCN(C)C,2,0.8,-0.7,4,6,10,-3.1,/,0.6,-3
Cc1nc(-c2ccc(NC(=O)Cc3ccccc3)cc2)cs1,1,3.0,2.1,19,-10,-8,1.8,-8%,-1.7,-4
COc1cc(C)c(Cl)cc1S(=O)(=O)n1ccnc1C,/,-1.2,-0.7,4,12,6,-0.2,2%,-0.3,5
Cc1ccc(OCCCOc2cccc3cccnc23)cc1C,-4,-4.4,/,0,/,/,/,4%,0.2,-1
CCC(=O)Nc1cccc(C2=NOC3(C2)C[C@H](C(N)=O)N(C(=O)Cc2ccc([N+](=O)[O-])cc2)C3)c1 (stereo not given in full),-5,-4.4,-11,-10,6,12,0.6,-6%,-0.9,-7
S=C1NCCOCCOCCOCCOCCN1,-8,1.4,-0.1,5,-1,-5,-9.9,0%,0.9,-18
CCOC(=O)c1c(NC(=S)Nc2ccc(OC)cc2)sc2c1CCCCC2,-1,0.5,0.0,?,/,/,/,6%,-0.4,2
CCC(C)NC(=O)CSc1nc2cc3c(cc2c(=O)n1Cc1ccco1)OCO3 (stereo not given),/,5.2,1.0,-7,11,5,1.0,8%,/,5
CN1CCN(Cc2nc3ccccc3c(=O)n2Cc2nc(-c3ccccc3F)cs2)CC1,-3,?,/,7,/,/,/,-2%,0.1,24
COc1cccc(-c2nnc3sc(-c4ccc(C)cc4)nn23)c1,6,?,/,28,/,/,/,?,1.5,-60
COc1ccc2[nH]c3c(N4CCC(O)(c5cccc(C(F)(F)F)c5)CC4)ncnc3c2c1,39,0.5,/,10,/,/,/,80%,1.0,24
CCOC(=O)c1c(CSC(=N)N)n(C)c2cc(Br)c(OC(C)=O)cc12,-16,4.4,11,7,-27*,-7.5*,9.4*,-17%,-0.3,-11
CC(=O)N1c2ccc(S(=O)(=O)N(C)CC(=O)NC(C)c3ccccc3)cc2CC1C (stereo not given),-4,-1.3,1.1,-8,0,1,-0.5,5%,0.3,-1
CCOC(=O)C1CCCN(C(=O)C2CCN(S(=O)(=O)c3cnc[nH]3)CC2)C1 (stereo not given),-3,-2.8,/,4,/,/,/,22%,0.5,-3
CCCCC(=O)NC(=S)Nc1cccc(C(=O)O)c1,-5,2.9,-0.2,6,11,11,0.8,-4%,-0.4,5
CCCCCC(=O)N/N=C/c1ccc(N(C)C)cc1,-10,-0.6,/,-48,/,/,/,/,0.6,-4
O=C(O)CC/C(=C\c1ccc(Cl)c([N+](=O)[O-])c1)c1nc2ccccc2s1,-1,4.1,3.4,0,-45,-74,-14,-4%,0.8,0
CCOC(=O)C1CCN(Cc2cn[nH]c2-c2ccccc2)CC1,1,1.2,/,-10,/,/,/,-2%,0.9,-3
CCOC(=O)C1=C(C)C(c2ccc(OC)cc2)NC(=O)N1 (stereo not given),2,1.0,4.2,3,-1,0,-6.8,5%,1.7,-8
C=CCn1cnc2c(nnn2-c2ccc(OC)c(OC)c2)c1=O,-4,-2.7,-1.7,37,-6,9,-3.2,1%,-0.7,-8
O=C(O)CSc1nnc(-c2ccncc2)n1C1CCCCC1,1,-2.7,/,-16,/,/,/,0%,-0.3,-11
COC(=O)c1ccc(CNC(=O)c2cc3ccccc3oc2=O)cc1,7,-5.7,-3.0,-43,14,9,2.5,-14%,0.8,-14
CC(C)C(=O)N1CCC2(CC1)Oc1ccc(Cl)cc1C(=O)C21CC(c2cccnc2)=NO1 (stereo not given),-2,2.1,3.8,29,-3,-12,1.1,-1%,0.2,-7
Cc1ccc(C(=O)Nc2ccccc2-c2ccccc2)cc1S(=O)(=O)Nc1ccccc1,13,/,2.5,/,-14,-31,-8.2,/,0.3,/
Cc1ccc(OCC(=O)OCc2nc3scc(-c4ccccc4)c3c(=O)[nH]2)cc1C,-4,-1.9,-1.4,13,14,5,0.9,-12%,0.0,-6
CNC(=O)CSc1nc2nc(C)cc(C)n2n1,-7,-0.1,/,1,/,/,/,-9%,0.2,-5
CCOCCCN1CC(C(=O)NCCc2ccccc2)CC1=O (stereo not given),0,-0.3,/,-13,/,/,/,16%,0.1,-5
CC(OC(=O)/C=C/c1cccs1)C(=O)Nc1ccc(S(N)(=O)=O)cc1 (stereo not given),1,1.7,3.4,0,-6,-5,6.2,7%,0.4,-1
CCC(C)NC(=O)Nc1ccc(C)cc1C (stereo not given),4,-1.4,-5.0,0,-1,4,0.0,/,0.8,-20
O=C1NN(c2ccccc2)C(=O)C2C1C1C=CC2C12CC2 (stereo not given),12,-1.5,/,?,/,/,/,2%,-0.1,2
COc1ccc(NC(=O)CC(C)(C)C)c([N+](=O)[O-])c1,-3,6.8,/,-14,/,/,/,4%,0.5,-1
O=C1CC(Sc2nnc(-c3ccccc3)o2)C(=O)N1c1ccccc1 (stereo not given),-5,5.5,/,18,/,/,/,-7%,-0.5,-12
Cc1cccc(-n2ncc3c(NCc4cccnc4)ncnc32)c1,-6,-0.7,-1.5,6,-7,-25,-2.2,/,-0.9,26
CCc1nnc(NC(=O)CN2C(=O)c3ccccc3S2(=O)=O)s1,-7,-0.8,/,1,16,12,-0.9,12%,0.2,-10
COc1ccc(Cc2nc3ccc(C(=O)NC(C)c4cnn(C)c4)cc3o2)cc1 (stereo not given),-5,4.5,-0.3,-11,5,5,-0.9,/,0.5,0
C(=C\c1ccccc1)/CSc1nnc(-c2cccnc2)o1,3,-0.3,-48,-4,-3,-9,0.0,-1%,-0.4,6
Cc1nn(C)c(C(=O)N/N=C/c2cccc3ccccc23)c1Cl,-16,-1.0,/,-6,/,/,/,-6%,-0.3,-12
O=C(CSc1ccc2c(c1)OCCO2)Nc1cccnc1,-13,1.9,-2.5,-5,19,13,-0.4,5%,-1.7,-3
CC1CCCN(CC(=O)Nc2cccc([N+](=O)[O-])c2)C1 (stereo not given),-1,-1.2,2.4,4,-7,-36,-10,/,1.0,-4
CCc1ccc(N2CCN(CCNC(=O)Nc3ccc(OC)cc3)CC2)cc1,-1,4.8,-15,-6,10,4,2.3,/,1.0,12
Cc1c(C(=O)N2CCCC(C)C2)sc2ncnc(N3CCCCC3C)c12 (stereo not given),-4,-3.1,0.0,-12,-37,-41,-2.9,-6%,0.5,26
COc1ccccc1C(=O)NC(=O)COC(=O)C1CCC1,-6,-1.9,-1.2,6,-4,0,-2.0,6%,-0.5,-11
Cn1c(SCC2CCCO2)nnc1-c1ccc([N+](=O)[O-])cc1 (stereo not given),-4,1.0,0.5,-13,/,/,/,33%,0.0,10
Cc1cccc(NC(=O)N2CCCc3ccccc32)c1C,0,4.3,-1.1,-6,10,18,1.4,/,0.8,-15
Cc1cc(SCC(=O)Nc2ncc(Cl)cc2Cl)nc2ccccc12,0,2.5,/,-10,/,/,/,-7%,1.3,2
COCCn1c(N)c(C(=S)NC(=O)c2cccs2)c(=O)[nH]c1=O,-6,?,3.3,4,3,0,-3.4,?,1.1,0
C=CC(=O)Oc1ccc(N2Cc3ccccc3C2=O)cc1,-14,-0.6,/,-22,/,/,/,/,-4.2,-9
COc1ccc(N2CCN(C(=O)c3ccc(Cn4c(=S)[nH]c5ccc(N6CCOCC6)cc5c4=O)cc3)CC2)cc1,14,1.7,0.4,40,5,-1,1.9,-4%,-1.8,68*
CN(C)c1ccc(NC(=O)N2CCOCC2)cc1,-1,6.9,/,-2,/,/,/,?,-0.7,10
CC(=O)c1ccc(OCCCC(=O)Nc2cccc(S(=O)(=O)N3CCCCC3)c2)cc1,3,/,0.1,/,-10,-18,4.4,/,0.0,/
CCOc1ccc(C2C(C(=O)OC)=C(C)N=C3SCCC(=O)N32)cc1OCC (stereo not given),-14,5.6,/,4,/,/,/,-2%,-0.4,-9
Cc1ccc(-c2ccc(=O)n(CCC(=O)N3CCN(c4cccc(C)c4)C(C)C3)n2)cc1 (stereo not given),-1,1.2,11,-2,-16,-63,8.0,2%,1.0,7
C=CCn1c(SCC(=O)NCCC2=CCCCC2)nc2ccc(Cl)cc2c1=O,0,?,/,-2,/,/,/,-1%,-0.2,2
COc1ccccc1C(=O)COC(=O)CNS(=O)(=O)c1ccc(C)c(C)c1,-8,?,-0.7,-4,-5,-6,1.1,-2%,0.6,-2
# The results go on.
SMILES,Beta apoptosis,RanGTP-Impb inh,AF4-AF9 inh,Calb FLC,Ecoli rRNA inh,Ecoli rRNA inh OD600,Ecoli rRNA inh RFP,Vif TR-FRET,A1 inh,T cruzi inh
COc1ccc(-c2c(C)n([O-])c3c([n+]2=O)CCCC3)c(OC)c1,-5,-3.4,3.4,11,6,8,-5.8,0%,-0.3,-19
CC1Cc2cc(/C(O)=C3/C(=O)C(=O)N(CCN4CCOCC4)C3c3ccc(C(C)C)cc3)ccc2O1 (stereo not given),/,-1.3,-0.5,0,-8,-1,-1.9,1%,0.2,2
COC(=O)C1=C(CSc2nncn2C)NC(=O)NC1c1ccc(F)cc1 (stereo not given),0,-1.3,/,-13,/,/,/,5%,0.0,-10
CCCOC(=O)Nc1ccc(S(=O)(=O)Nn2cnnc2)cc1,2,5.5,/,8,/,/,/,-4%,-0.5,-7
COc1ccc(NC(=O)c2cc(S(=O)(=O)Nc3ccc(OC)cc3)cs2)cc1,9,-1.9,15,5,-42,-65,20,23%,0.4,-1
Cc1cccc(C)c1OCC(O)CN1CCc2ccccc2C1 (stereo not given),-5,1.4,1.5,-15,1,-8,-0.2,/,0.9,7

# Some of the compounds tested; the hit share may differ from the screen's.
